Screens as filed in PubChem.
eIF4H inh = inhibitors of RNA binding by human eIF4H; Q15056; AID 2012; 0.94% of 290,000 active; inhibition, % at 35 µM; eIF4H fluorescence polarization binding assay;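 active = 50% or more with normal probe brightness, or confirmed in later tests; about a fifth of its hits are not listed in these tables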;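 also: calls also rest on retests at 20 µM and on dose response follow-up; 0% = protein and probe with vehicle and 100% = probe without protein; strong numbers were not always called active; many hits fall short of the cut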
CSC inhib = blocks cancer stem cells. AID 2717. cancer stem cell-like cells viability, luminescence. inhibition, % at 7.5 µM. 1.1% of 300,000 active;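 active = mean at 75% or more and at least half the replicates too; tested in HMLE shEcad cells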;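 also: 0% = median of negative and 100% = median of positive control wells; the first replicate is given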
Yeast UUG start = alters start codon recognition fidelity in yeast | S. cerevisiae UUG-firefly luciferase reporter, luminescence/redox ratio | 0.13% of 350,000 active | activity score, % at 18.7 µM;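 active = replicate mean at a twofold rise or more, about +100% in these data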;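 also: firefly luciferase made from a UUG start codon reports start codon fidelity; reporter light over untreated wells divided by growth signal over untreated wells; some hits fall short of that in this replicate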
Env fusion inh = HIV envelope-mediated fusion inhibition; inhibition, % at 12.3 µM; HeLa-JRFL Env/CEM21 cell fusion, luciferase; 1.1% of 360,000 active; AID 651610;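 active = mean replicate inhibition score of at least 50 and every replicate individually at or above 50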;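 also: 0% = plate neutral controls and 100% = maraviroc near 300 nM; one replicate is shown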
PABP FP inh = PABP-poly(A) binding inhibition; P11940; PABP-poly(A) RNA binding, fluorescence polarization; inhibition, % at 35 µM; 1% of 290,000 active;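 active = 50% or more with normal probe brightness, or confirmed in later tests; about a fifth of its hits are not listed in these tables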;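 also: calls also rest on retests at 20 µM and on dose response follow-up; controls were probe without protein and protein plus probe with vehicle; some compounds called inactive have numbers as strong as hits; many hits fall short of the cut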
Target sequence (P11940 whole entry, looked up): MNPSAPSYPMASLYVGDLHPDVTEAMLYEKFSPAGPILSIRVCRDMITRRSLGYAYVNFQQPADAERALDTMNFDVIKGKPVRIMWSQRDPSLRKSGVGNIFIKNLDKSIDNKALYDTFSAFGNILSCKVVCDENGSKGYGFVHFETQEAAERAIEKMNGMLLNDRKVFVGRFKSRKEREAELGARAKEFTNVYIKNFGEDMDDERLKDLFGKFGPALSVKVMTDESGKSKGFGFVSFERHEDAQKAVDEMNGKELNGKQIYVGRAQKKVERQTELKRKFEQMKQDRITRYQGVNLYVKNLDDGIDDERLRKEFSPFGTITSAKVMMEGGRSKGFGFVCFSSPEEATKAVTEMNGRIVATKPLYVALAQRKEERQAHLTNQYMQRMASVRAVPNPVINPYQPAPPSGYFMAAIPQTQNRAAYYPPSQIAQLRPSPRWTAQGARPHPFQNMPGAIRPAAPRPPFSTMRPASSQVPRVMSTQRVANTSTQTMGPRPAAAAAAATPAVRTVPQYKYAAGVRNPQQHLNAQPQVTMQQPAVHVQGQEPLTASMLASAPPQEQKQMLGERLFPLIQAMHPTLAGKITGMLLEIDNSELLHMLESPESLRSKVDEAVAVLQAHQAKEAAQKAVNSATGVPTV
Rce1 inhib = blocks yeast Ras-converting enzyme; 0.27% of 290,000 active; calls only; yeast membranes, quenched prenylated peptide cleavage fluorescence; Q03530; AID 2563;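 active = fall in fluorescence gain of 50% or more versus controls, with final raw signal at or below 3038400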;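 also: plate controls were neutral control wells for no effect and wells lacking membranes for full effect; tested at 10 µM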
MT1-MMP act inh = inhibitors of human MT1-MMP activation. GFP/RFP ratio change, % at 20 µM. AID 651647. 0.061% of 360,000 active. HT1080 RFP-PRO-GFP cells, GFP/RFP ratio fluorescence, overnight; percent of plate control window, DMSO zero. P50281;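 active = GFP/RFP ratio change of at least 30% with cell ATP level not reduced by more than half and red fluorescence within 50% of control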; also: strong numbers were not always called active
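Assay system: HT1080 cells carrying an RFP-PRO-GFP reporter | Dosing: Single dose of 20 µM compound, 1% DMSO final | Incubation: Cells overnight before dosing, compound overnight, 37 °C, 5% CO2 | Evaluation: GFP/RFP fluorescence ratio | Control set: DMSO and RFP-L50D-GFP cell wells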
eIF4H inh retest = also measured in eIF4H inh; calls as there; inhibition, %; compound at 20 µM; confirmation average;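 mean of two retest wells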
PABP FP inh retest = further read-out of PABP FP inh, marked with its call; inhibition, %; compound at 20 µM; confirmation repeats;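 mean of two retest wells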
MT1-MMP act inh RFP = second read-out of MT1-MMP act inh, no call of its own (marks repeat the call); RFP signal change, %; measured here: RFP expression control read;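 0 = vehicle wells; hits needed this value within 50% of zero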
* marks the source's active call; other numbers are inactive results; i = inactive; nt = no result given.

SMILES | eIF4H inh | CSC inhib | Yeast UUG start | Env fusion inh | PABP FP inh | Rce1 inhib | MT1-MMP act inh | MT1-MMP act inh RFP | others
CCOC(=O)N1CCN(C(=O)c2ccccc2NC(=O)c2ccc(F)cc2)CC1 | 3.9 | -8.9 | 5.9 | -2.3 | 0.7 | i | -5.2 | 0.2
COc1ccc(-c2nnc(NC(=O)Cc3ccccc3)o2)cc1 | 4.3 | -10.1 | -19.4 | 0.4 | 4.5 | i | 1.2 | 6.8
COc1ccc(/C=C/C(=O)Nc2ccccc2)cc1OC | 1.3 | -3.6 | nt | -24.3 | -0.7 | i | -0.5 | -1.0
O=C(NCCN1CCOCC1)c1cc(-c2ccccc2)on1 | -10.5 | nt | -28.6 | -79.9 | -11.1 | i | 11.7 | 3.1
Cc1onc(-c2c(Cl)cccc2Cl)c1C(=O)N1CCN(c2ccc(F)cc2)CC1 | 5.2 | 9.6 | 19.2 | 2.3 | 11.0 | i | -5.3 | -12.1
CN(C)c1ccc(CC(=O)c2nc3ccccc3s2)cc1 | 10.8 | -7.9 | nt | -22.1 | 1.7 | i | -7.4 | 5.3
Cc1cc(-c2n[nH]c(=S)n2/N=C/c2cccc([N+](=O)[O-])c2)n[nH]1 | -3.5 | -13.2 | nt | nt | 5.5 | i | 3.8 | 5.9
Cc1c(C(=O)N2CCN(c3ccccn3)CC2)oc2c1C(=O)CC(C)(C)C2 | -0.5 | -28.7 | -15.1 | 5.5 | 7.1 | i | 0.8 | 3.3
CCNS(=O)(=O)c1ccc(CCC(=O)Nc2ccc3c(c2)OCO3)cc1 | -7.4 | -12.2 | -13.9 | 0.6 | 3.6 | i | 3.0 | -1.4
NC(=O)CN1C(=O)NC2(CCCc3sccc32)C1=O (stereo unspecified) | 1.8 | -7.5 | -11.4 | 3.8 | -5.3 | i | 1.8 | 5.3
COC(=O)c1ccccc1NC(=O)COC(=O)[C@H](C)NC(N)=O | -8.7 | -9.2 | 1.5 | 4.8 | 1.9 | i | 1.5 | 1.9
CC(=O)Nc1ccc(NC(=O)CC(NC(=O)c2ccccc2)c2ccccc2)cc1 (stereo unspecified) | -2.7 | -0.5 | -6.2 | -9.4 | 5.2 | i | -3.7 | -1.1
COc1ccc(C(=O)NCC2CCCO2)cc1S(=O)(=O)N1CCCc2ccccc21 (stereo unspecified) | 5.2 | -2.6 | nt | -5.9 | 1.4 | i | -0.9 | 0.6
COc1cc(C2CC(=O)C3=C(C2)Nc2ncnn2C3c2cccs2)cc(OC)c1OC (stereo unspecified) | -13.9 | 0.0 | -8.7 | 2.0 | -0.6 | i | 5.7 | 0.1
C/C=C(\C)CN1CCN(c2ccc(C)cc2)CC1 | -6.1 | 20.4 | -12.7 | nt | 18.5 | i | 0.9 | 3.2
O=C(COC(=O)/C=C/c1ccccc1[N+](=O)[O-])NC1CC1 | -6.3 | -0.2 | -10.8 | 19.8 | 15.8 | i | 0.2 | 2.6
CCS(=O)(=O)c1ncc(Cl)c(C(=O)Nc2ccc(C)cc2)n1 | -7.9 | 119.0* | -22.9 | 16.6 | -2.2 | i | 3.4 | -4.4
COc1cc(S(=O)(=O)N2CCN(C(=O)C3CC3)CC2)ccc1NC(C)=O | nt | 1.8 | 6.1 | 27.2 | nt | nt | -0.4 | 3.4
N#Cc1c(-c2cccc([N+](=O)[O-])c2)nc2n(c1=O)CCS2 | 1.9 | -3.4 | 13.6 | -28.0 | 14.7 | i | -0.4 | 2.1
CCc1ccc(C(=O)NNc2ccc(F)cc2)cc1 | -1.1 | 74.2 | nt | -18.6 | -2.8 | i | 0.2 | -1.0
CCc1ccc(-c2cc(C(=O)NCc3ccco3)c3ccccc3n2)s1 | -4.7 | 11.3 | nt | -47.6 | -10.3 | i | -12.6 | -1.2
CSc1cccc(CNC(=O)C2CCC(=O)N(CCc3ccccc3)C2)c1 (stereo unspecified) | nt | nt | 11.5 | -22.5 | nt | nt | -2.1 | -2.3
CC(=O)N/N=C(\C)CC(=O)Nc1cccc(C(F)(F)F)c1 | 0.9 | -2.5 | nt | -0.2 | 1.6 | i | -1.0 | 1.0
Cc1c(-c2cccc(Cl)c2)nc2ccccc2c1C(=O)NC1CC1 | 4.2 | -8.7 | -9.6 | -8.5 | -1.4 | i | -3.2 | -3.1
CCOc1c(OC)ccc2c3c(c(=O)oc12)CCCC3 | -4.9 | -1.5 | nt | -78.6 | -2.3 | i | 3.3 | -1.5

More records
SMILES | eIF4H inh | CSC inhib | Yeast UUG start | Env fusion inh | PABP FP inh | Rce1 inhib | MT1-MMP act inh | MT1-MMP act inh RFP | others
COCCn1c(SCC(=O)Nc2ccc(F)cc2)nc2c([nH]c3ccccc32)c1=O | -2.8 | -6.0 | -4.5 | 8.9 | -3.0 | i | 2.6 | -3.1
Cc1cc(C)c(C(=O)O)c(CC(C)(C)C(=O)O)c1 | -0.6 | 3.9 | -0.3 | -1.7 | -7.0 | i | -11.4 | 1.3
Cc1ccc(/C=C2\Sc3ccccc3C2=O)s1 | -0.6 | -12.3 | -28.7 | -26.7 | -2.6 | i | 23.8 | 23.0
O=C1O[C@@H](c2ccc(O)cc2)Cc2cccc(O)c21 | nt | -15.0 | -11.7 | 1.0 | nt | nt | -1.7 | 3.8
CN(C)S(=O)(=O)c1ccc(NC(=O)CN2CCN(C(c3ccccc3)c3ccccc3)CC2)cc1 | -6.8 | -18.7 | -17.6 | -18.1 | -6.2 | i | 1.0 | -0.5
CCc1c(O)nc(SCC(=O)NCc2ccco2)[nH]c1=O | 1.8 | -15.3 | -11.2 | -80.2 | 20.5 | i | 3.4 | 10.0
COC(=O)C1=C(COc2ccc(C=O)cc2OC)NC(=O)NC1c1cc(C)ccc1C (stereo unspecified) | -5.0 | 0.1 | nt | 2.5 | -13.9 | i | 2.4 | -0.5
Cc1nnc(N/N=C/c2cccc(OCc3ccc(Cl)c(Cl)c3)c2)n1N | 4.9 | 20.7 | -27.3 | nt | 12.5 | i | 7.7 | 8.8
CCOc1ccc(Nc2oc(-c3ccccc3Cl)nc2C#N)cc1 | 1.0 | nt | nt | -199.6 | 1.2 | i | nt | nt
COc1ccc(CNC(=O)CN(Cc2ccc(Cl)cc2)S(C)(=O)=O)cc1 | 78.5 | nt | nt | 12.6 | 2.5 | i | -2.1 | -1.8 | eIF4H inh retest=-1.2;PABP FP inh retest=-6.9
CCOC(=O)c1c(N)sc2c(OCC)c(Br)ccc12 | 7.0 | 79.4* | -11.2 | nt | 0.1 | i | -0.6 | -5.1
OC(CNc1ccccc1)Cn1ccc2ccccc21 (stereo unspecified) | -16.2 | -6.2 | nt | -11.1 | 14.0 | i | 4.8 | 2.3
COCCNc1nc2c(c(=O)[nH]c(=O)n2C)n1CCCc1ccccc1 | -8.5 | -24.0 | -18.7 | -0.2 | 6.5 | i | 0.3 | 3.4
CCO[C@H]1OC(C(=O)N2CCOCC2)=C[C@@H](c2ccc(Br)cc2)[C@@H]1CCCO | 0.7 | -4.3 | -7.7 | 2.0 | 6.3 | i | -0.3 | 4.7
Cc1ccsc1/C=C(\C(=O)c1ccc(OC(C)C)cc1)c1nc2ccccc2o1 | 4.6 | 18.0 | nt | -13.7 | 16.1 | i | 0.3 | -7.0
CC(C)(C)OC(=O)C[C@H]1C/C=C\C[C@@H](CC(=O)N[C@@H](CO)Cc2ccccc2)C(=O)NCCOC1=O | nt | nt | -15.8 | -2.5 | nt | nt | -0.2 | -1.2
Cc1cc(O)c(C(C)C)cc1C1(c2cc(C(C)C)c(O)cc2C)OC(=O)c2ccccc21 | 5.3 | 150.1* | -3.0 | 67.6* | 17.9 | i | -17.7 | -30.3
O=S1(=O)C[C@@H](N2CCN(CCO)CC2)[C@H](COCc2ccccc2)N1 | nt | nt | 1.7 | -21.9 | nt | nt | 1.3 | 8.0
O=C(/C=C/c1c(Cl)cccc1Cl)NCCc1ccccc1 | -2.3 | -3.5 | -24.1 | -20.9 | 1.0 | i | 3.1 | -2.1
O=c1c([N+](=O)[O-])c(O)c2cccc3c2n1CCC3 | 14.1 | -36.3 | 20.8 | -88.6 | 15.2 | i | 0.5 | 4.0
CCC(=O)C1CCCN(C(=O)c2ccc(OC3CCN(C(=O)c4cccnc4)CC3)cc2)C1 (stereo unspecified) | 0.5 | 1.2 | nt | 0.1 | -4.5 | i | -1.0 | -7.0
COc1ccc(N2CCN(C(=O)CCc3cc(OC)c(OC)c(OC)c3)CC2)cc1 | -6.5 | -0.8 | -6.5 | 15.3 | 11.1 | i | 1.5 | 2.0
O=C(Cc1cccc(NC(=O)C2CCCN(C(=O)c3ccccc3)C2)c1)Nc1ccc(C(=O)N2CCOCC2)cc1 (stereo unspecified) | nt | nt | 0.1 | 2.2 | nt | nt | 0.9 | 2.0
CCN1CCN(c2ccc(NC(=O)c3ccccc3F)cc2Cl)CC1 | -9.8 | 10.7 | -12.0 | -37.1 | -12.3 | i | -0.4 | -2.1
CCS(=O)(=O)NCC(c1cccnc1)N1CCN(c2ccccc2F)CC1 (stereo unspecified) | -1.7 | -1.5 | 1.8 | nt | 0.2 | i | 3.6 | 2.8

Next results.
SMILES | eIF4H inh | CSC inhib | Yeast UUG start | Env fusion inh | PABP FP inh | Rce1 inhib | MT1-MMP act inh | MT1-MMP act inh RFP | others
O=C(O)Cn1c(CC(=O)N2CCCC2)nc2ccccc21 | 0.8 | -9.8 | nt | nt | 12.5 | i | 3.6 | 1.6
COc1ccc(CCNC(=O)C2CCCN(c3nn4c(=O)cc(C)nc4s3)C2)cc1OC (stereo unspecified) | 4.5 | nt | -6.6 | nt | 8.4 | i | 3.2 | 7.5
CN(C)c1ccc(/C=N/NC(=S)NCc2ccccc2)cc1 | -2.6 | 22.3 | -21.3 | -36.5 | 5.3 | i | 3.5 | 2.3
CCN(CC(=O)NCCc1ccc(Cl)cc1)Cc1nc2ccccc2c(=O)[nH]1 | -7.2 | -4.8 | nt | 0.0 | 51.9 | i | -1.3 | -9.9 | eIF4H inh retest=1.2;PABP FP inh retest=18.6
C=CCn1c(SCC#N)nnc1-c1ccc2ncccc2c1 | -7.0 | -5.5 | nt | 0.2 | -8.7 | i | -1.5 | 6.5
CCCCN1C(=O)C(CC(=O)NC2CCCCC2)CC(C(=O)N(CC)CC)=C1C (stereo unspecified) | nt | nt | 2.4 | 8.5 | nt | nt | 4.9 | 10.7
COc1ccccc1-n1c(SCC(=O)NC(C)(C)C)nc(O)c(Cc2ccccc2)c1=O | -4.6 | -9.4 | -13.9 | nt | -5.2 | i | 5.8 | 1.2
COc1ccc(-c2nc(C#N)c(N3CCc4ccccc4C3)o2)cc1OC | -11.1 | 12.7 | 9.2 | 45.5 | -4.1 | i | -1.5 | -6.5
CCc1nc2ccc(C(=O)N(CC)CCN(C)C)cn2c1N(CC)CCOC | nt | nt | -18.6 | i | nt | nt | -2.7 | 4.2
CCC(=O)NCC(=O)OCC(=O)c1ccccc1 | -3.5 | -2.8 | -25.9 | -40.8 | 11.5 | i | -2.7 | -3.0
CC(OC(=O)CNC(=O)C12CC3CC(CC(C3)C1)C2)C(=O)Nc1ncc(Cl)cc1Cl (stereo unspecified) | 11.2 | -10.6 | -28.8 | -1.1 | 1.5 | i | -1.6 | -2.6
Cc1ccc(-n2c(O)c(C=NC3CCS(=O)(=O)C3)c3ccccc3c2=O)c(C)c1 (stereo unspecified) | 0.7 | 10.7 | nt | 11.8 | 6.7 | i | 0.4 | 0.2
COc1ccc(C(=O)OCC(=O)Nc2cccc(C(C)=O)c2)cc1OC | -5.7 | -11.1 | -8.9 | -7.4 | 12.3 | i | -0.3 | -2.3

The list is partial, so the mix of outcomes need not match the whole.
